# MARV entry inh: blocks Marburg virus binding to or entry into cells. 300,000 compounds, 1.8% hits. Potency, µM (highest dose often 37.8 µM), for the others: top-dose activity change, negative = inhibition, hits mostly inhibitors. Marburg virus pseudotyped entry inhibition, cell reporter; control for the full effect not named in the record; about a third of the inactives were read at about 46 µM. AID 540276; active = well fitted inhibition curve with a large enough effect; inconclusive = small, poorly fitted or top-dose-only effect, or effect the other way; inactive = flat fitted curve, though single readings scatter; tested in HEK293 cells; about a fifth of its hits are not listed in these tables; also: % is scaled to controls: 0 for no effect and ±100 for the full control effect; luciferase read-out
# Cruzain noTriton: blocks cruzain activity in detergent-free assay; P25779; purified cruzain, Z-FR-AMC fluorescence, no detergent; Potency, µM, without a hit: max response, negative = inhibition, most hits filed as inhibitors; 200,000 compounds, 2.3% hits; AID 1476;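 also: plate controls were enzyme without inhibitor for no effect and buffer without enzyme for full effect; nearly all actives have a fitted effect of over 40% in size; top concentration of the series not given in the record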
# Target sequence (P25779 123-467 limits assumed): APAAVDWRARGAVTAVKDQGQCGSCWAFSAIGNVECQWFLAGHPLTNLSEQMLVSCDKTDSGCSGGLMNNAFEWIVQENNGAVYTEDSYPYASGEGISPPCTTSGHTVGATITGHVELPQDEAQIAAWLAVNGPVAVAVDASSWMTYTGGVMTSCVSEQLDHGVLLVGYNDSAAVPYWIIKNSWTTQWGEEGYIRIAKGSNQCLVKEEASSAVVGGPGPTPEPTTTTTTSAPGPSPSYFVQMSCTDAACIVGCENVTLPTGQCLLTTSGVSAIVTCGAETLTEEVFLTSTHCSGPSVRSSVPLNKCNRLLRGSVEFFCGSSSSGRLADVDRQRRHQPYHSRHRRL
#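 Purified cruzain at 1.5 nM, pre-incubated 15 min with compound at room temperature in 100 mM sodium acetate pH 5.5, 5 mM DTT, 0.00005% Triton X-100. Reaction started with 2 uM Z-FR-AMC; AMC fluorescence increase over 60 s gives rate.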
# Cruzain inh Det: inhibitors of Trypanosoma cruzi cruzain with detergent | Potency, µM, for the others: max response, negative = inhibition, usual class: inhibitors | purified cruzain, Z-FR-AMC fluorescence, 0.01% Triton | P25779 | 200,000 compounds, 0.43% hits;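 also: plate controls were neutral wells for no effect and buffer without enzyme for full effect; nearly all actives have a fitted effect of over 40% in size; top concentration of the series not given in the record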
#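 Purified cruzain (1.5 nM final) was preincubated with compounds for 15 min at room temperature in 100 mM sodium acetate pH 5.5, 5 mM DTT, 0.01% Triton X-100. Reaction started with 2 uM Z-FR-AMC; AMC fluorescence change over 60 s gave activity.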
# NS1 inh: inhibitors of influenza NS1 protein function. S. cerevisiae slowed by influenza A NS1, growth recovery by OD600. Potency, µM (top dose mostly 46.1 µM), for inactives: top-dose activity, positive = more growth. 270,000 compounds, 0.4% hits. AID 2326; active means well fitted rising curve with a large enough effect; inconclusive means small, poorly fitted or top-dose-only effect; inactive means no such curve, though single readings can be large or run the other way; also: nearly all actives have a fitted effect of over 50% in size
#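 Compounds were scored for reversing the slow growth caused by influenza A NS1 in S. cerevisiae, measured by optical density at 600 nm. Assay medium contained 2% galactose at pH 6.0; NS1-free yeast of the same strain were the positive control.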
# Starred values were filed as active, the others as inactive; ? = inconclusive; nt = not tested or not shown; & = joins results of further samples; [ ] = another dose, or the depositor's remark. Unless noted, calls follow the shape of the dose curve; as a rule, active = well fitted curve in the direction sought with a large enough effect; inconclusive = small, poorly fitted or top-dose-only effect, or another doubt; inactive = no such curve, though single readings can be large; an effect the other way counts as inactive or inconclusive. Potency is read from the fitted curve at half-maximal effect. An excerpt; the hit share may differ from the screen's.
entry	Compound	Cruzain noTriton	MARV entry inh
1	O=C(N/N=C1/C[C@@H](O)[C@@H](O)[C@@H]2[C@@H]3C(=O)N(C4CCCCC4)C(=O)[C@H]3CC[C@@H]12)OCc1ccccc1	nt	-13%[14.2 µM]
2	CCC1CN2CCC1CC2C(Oc1cc2ccccc2c2ccccc12)c1ccnc2ccc(O)cc12 (configuration not stated)	nt	?
3	COc1ccc(COC(=O)N/N=C2\C[C@@H](O)[C@@H](O)[C@@H]3[C@@H]4C(=O)N(C5CCCCC5)C(=O)[C@@H]4CC[C@H]23)cc1	nt	?
4	COC1=C[C@H](C(=O)NCc2ccc(OC)cc2)C(C)C(c2ccccc2)CC1=O (some centres not stated)	nt	3%[14.2 µM]
5	Cc1cccc(C)c1Nc1oc(-c2ccccc2)nc1C(C)(C)C	nt	2%[14.2 µM]
6	C#CCN1C(=O)[C@]2(OCCC=C[C@H]2C)c2c(Br)cccc21	nt	?
7	CCN1CCN(c2ncnc3c2oc2nc(C)c4c(c23)CC(C)(C)OC4)CC1	nt	0%
8	O=C(C1CCC1)N1CCc2cc(S(=O)(=O)N3CCc4ccccc4C3)ccc21	nt	3%
9	Cn1c(=O)c(C(=O)Nc2cccnc2)c(O)c2ccccc21	nt	-1%
10	CCOC(=O)C1(c2ccccc2)NC(c2ccc(N(C)C)cc2)C2C(=O)N(C)C(=O)C21 (configuration not stated)	nt	6%
11	Cn1c(=O)c2c(nc(SCC(=O)N3CCCc4ccccc43)n2C)n(C)c1=O	nt	1%
12	O=c1[nH]c(CN2CCN(Cc3ccccc3)CC2)nc2sc3c(c12)CCC3	nt	8%

entry	NS1 inh	Cruzain inh Det
1	nt	nt
2	nt	nt
3	nt	nt
4	nt	nt
5	nt	nt
6	nt	nt
7	-6%	nt
8	-16%	nt
9	7%	nt
10	-5%	nt
11	2%	nt
12	12%	nt

# Later entries.
entry	Compound	Cruzain noTriton	MARV entry inh
13	CCn1cc(C(=O)N=c2sc3ccccc3n2C)c(=O)c2ccc(C)nc21	nt	0%
14	Cc1cccn2c(=O)c3cc(C(=O)N4CCCc5ccccc54)n(C)c3nc12	nt	-4%
15	O=C(Nc1ccccc1-c1nc2ccccc2o1)c1ccc2c(c1)OCCO2	nt	-1%
16	O=C(CSc1nnc2c3cc(F)ccc3nc(-c3ccccc3)n12)N1CCOCC1	nt	-2%
17	Cc1ccc2c(c1)sc1ncc(NC(=O)c3ccccc3)c(=O)n12	nt	1%
18	O=C(CSc1ccc2nnc(-c3ccccc3)n2n1)N1CCN(c2ccccc2)CC1	nt	-1%
19	COc1ccc(-c2nn3c(-c4ccncc4)nnc3s2)cc1OC	nt	0%
20	COC(=O)c1c(N)n(-c2cc(OC)cc(OC)c2)c2nc3ccccc3nc12	nt	2%
21	CCc1nn2c(=O)cc(CSc3nc4sc5c(c4c(=O)n3C)CCCC5)nc2s1	nt	-4%
22	CCCCc1nc2ccccc2n2cc3c(=O)n(C)c(=O)n(C)c3c12	nt	0%
23	O=C1c2ccccc2C(=O)N1CCCCN1CCN(CCCCN2C(=O)c3ccccc3C2=O)CC1	nt	-1%
24	Cc1ccc(C)c(NC(=O)CC(NCCCN2CCOCC2)C(=O)O)c1 (configuration not stated)	nt	-1%

entry	NS1 inh	Cruzain inh Det
13	10%	nt
14	-3%	nt
15	4%	nt
16	9%	nt
17	20%	nt
18	-9%	nt
19	-11%	nt
20	-15%	nt
21	1%	nt
22	7%	nt
23	4%	nt
24	0%	nt

# The list goes on:
entry	Compound	Cruzain noTriton	MARV entry inh
25	Cc1cc(NC(=O)C23CCC(C)(c4nc5cc(Cl)c(Cl)cc5nc42)C3(C)C)no1 (configuration not stated)	nt	4%
26	CCOC(=O)N1CCC(NC(=O)Cc2ccc(-n3c(=O)[nH]c4ccccc4c3=O)cc2)CC1	nt	2%
27	Cc1ccc2[nH]c(=O)c(-c3noc(-c4ccncc4)n3)cc2c1	nt	0%
28	FC(F)(F)c1cc(NC(=S)Nc2ccc3ccccc3c2)cc(C(F)(F)F)c1	-5%	-8%&-8%[14.2 µM]
29	C[C@H](NCCC(c1ccccc1)c1ccccc1)c1ccccc1	3%	?
30	C=CCOC(=O)NC(CC(=Nc1ccc(OC)cc1)C(=O)OC)c1ccccc1 (configuration not stated)	-9%	5%&5%[14.2 µM]
31	COC(=O)N1C(C)=Cc2ccccc2C1C/C(C)=C/C(C)=O (configuration not stated)	-2%	?
32	COc1ccc2c(c1)O[C@@H](c1ccc3c(c1)OCO3)[C@H](OC(=O)NCCOc1ccccc1)C2=O	-10%	45%&45%[14.2 µM]
33	C=CCOC(=O)C1(C(NC(=O)OC)c2ccccc2)C(=O)Cc2ccccc21 (configuration not stated)	-12%	-21%&-21%[14.2 µM]
34	C[C@@H]1C[C@](C)(C(=O)c2ccc3c(c2)OCO3)C=C1c1ccc2c(c1)OCO2	5%	?
35	CNC[C@H](O)c1ccc(O)cc1	-11%	5%&5%
36	COc1c2ccoc2nc2c(OC)c(OC[C@H](O)C(C)(C)O)ccc12	-10%	?

entry	NS1 inh	Cruzain inh Det
25	14%	nt
26	-5%	nt
27	13%	nt
28	nt	-1.0%
29	nt	3.0%
30	nt	-0.7%
31	nt	1.7%
32	nt	-3.9%
33	nt	4.0%
34	nt	0.5%
35	nt	-6.9%
36	nt	-0.3%

# Following part.
entry	Compound	Cruzain noTriton	MARV entry inh
37	Cc1cc(C)cc(-c2cc3c(c(-c4c(O)c(-c5cc(C)cc(C)c5)cc5c4CCCC5)c2O)CCCC3)c1	16µM*	-13%&-13%[14.2 µM]
38	C[C@H]1COc2c(N3CCN(C)CC3)c(F)cc3c(=O)c(C(=O)NCc4ccco4)cn1c23	-6%	?
39	CC(C)(C)Nc1oc(-c2ccccc2)nc1-c1ccccc1F	-11%	?
40	C=CCC(C)(NCc1ccccc1)C(=O)OCC (configuration not stated)	7%	20%&20%[14.2 µM]
41	COC(=O)C(=Cc1cc(Br)c(OC)c(Br)c1)C(=O)OC	8%	?
42	Cc1cc(C)c(S(=O)(=O)OC[C@H]2C=CC[C@@H](CCC[C@H]3O[C@H](C(=O)OC(C)C)CC[C@@H]3C)O2)c(C)c1	-3%	-14%&-14%[14.2 µM]
43	C=CCOC(=O)N[C@@H](CC(C)C)/C(C(=O)OC)=C(\C)NCc1ccccc1	-13%	?
44	CC=C(/C(=C/C)c1ccc(O)cc1)c1ccc(O)cc1	-4%	-30%
45	C/C=C/C1=CC2=CC(=O)C(C)(OC(=O)c3c(C)cc(O)cc3O)C(=O)C2=CO1 (configuration not stated)	-4%	?
46	COC(=O)NC(c1ccccc1)c1c[nH]c2ccccc12 (configuration not stated)	-7%	-7%&-7%[14.2 µM]
47	COC(=O)C1=C(C)N(CC2CC2)C(=O)N[C@H]1CCc1ccccc1	-14%	?
48	CC[C@H](C)[C@@H](NC(=O)O[C@H]1C(=O)c2ccc(OC)cc2O[C@@H]1c1ccc2c(c1)OCO2)C(=O)OC	-5%&-7%	28%&28%[14.2 µM]

entry	NS1 inh	Cruzain inh Det
37	nt	0.6%
38	nt	2.0%
39	nt	2.6%
40	nt	5.8%
41	nt	-4.2%
42	nt	1.7%
43	nt	5.0%
44	nt	-13%
45	nt	0.1%
46	nt	2.3%
47	nt	0.6%
48	nt	-7.1%&-1.5%

# Next entries follow.
entry	Compound	Cruzain noTriton	MARV entry inh
49	C=C(C)C(=O)/C=C/c1ccc(Br)cc1	-3%	6%[14.2 µM]
50	Cc1cc(O)cc(O)c1C(=O)OC1(C)C(=O)C=C2C=C(/C=C/C(=O)O)OC=C2C1=O (configuration not stated)	-12%	-31%[14.2 µM]
51	O=C(NS(=O)(=O)c1ccc(F)cc1)O[C@@H]1C(=O)c2cc(Br)ccc2O[C@H]1c1ccc2c(c1)OCO2	-9%	?
52	CC1(OC(=O)C2CCCC2)C(=O)C=C2C=C(C3CC3)OC=C2C1=O (configuration not stated)	-9%	-18%&-18%[14.2 µM]
53	Cc1ccccc1Nc1oc(-c2ccccc2)nc1CCc1ccccc1	-13%	?
54	COc1ccc2c(c1)C(=O)[C@@H](OC(=O)Nc1cc(OC)c(OC)c(OC)c1)[C@H](c1ccc(OC)c(Br)c1)O2	-15%	-21%&-21%[14.2 µM]
55	C(=C\c1nc(-c2ccccc2)oc1Nc1ccc2ccccc2c1)/c1ccccc1	25µM*	3%[14.2 µM]
56	COC(=O)N1[C@H]2CC[C@@]3(C)CC(=O)C[C@]1(C)C3c1ccccc12	-5%	-10%[14.2 µM]
57	CC(=O)C1=C(C)N(Cc2ccco2)C(=O)N[C@@H]1c1ccccc1	-5%	?
58	CC(C)COC[C@H](CN(Cc1ccccc1)c1ccccc1)N1CCCC1	-3%	?
59	COCC(=O)C(C(=O)OC)[C@H](CCc1ccccc1)NC(=O)OC (some centres not stated)	-8%	?
60	C=C(C)C(O)/C=C/c1ccc(Br)cc1 (configuration not stated)	-1%	12%&12%[14.2 µM]

entry	NS1 inh	Cruzain inh Det
49	nt	0.0%
50	nt	-8.3%
51	nt	-0.9%
52	nt	2.0%
53	nt	-3.8%
54	nt	-0.5%
55	nt	3.2%
56	nt	3.3%
57	nt	1.4%
58	nt	0.4%
59	nt	2.7%
60	nt	-2.0%

# The listing continues:
entry	Compound	Cruzain noTriton	MARV entry inh
61	C[n+]1ccccc1/C=N\O	1%	2%
62	Cn1c(=O)c2c(ncn2C[C@@H](O)CO)n(C)c1=O	-9%	-10%
63	Oc1c(CN2CCOCC2)cc2c(c1-c1c(O)c(CN3CCOCC3)cc3c1CCCC3)CCCC2	-4%	-19%&-19%[14.2 µM]
64	C=C(C(C)=O)C(O)c1cccs1 (configuration not stated)	-5%	4%&4%[14.2 µM]
65	CCCCCCCC1=Cc2ccc(F)cc2C(C(C(=O)OC)C(=O)OC)N1C(=O)OC (configuration not stated)	9%	?

entry	NS1 inh	Cruzain inh Det
61	nt	-1.3%
62	nt	-1.9%
63	nt	3.1%
64	nt	2.9%
65	nt	-0.4%

# Screening results from PubChem.
